Screening results (PubChem)
FGF22 binding: FGF22 (human) thermal shift binding | Q9HCT0 | recombinant FGF22 thermal shift, SYPRO orange fluorescence; percent of sucrose octasulfate shift, DMSO zero | calls only at 9.99 µM | hit rate 1.5% among 340,000 | AID 651658;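 active = melting point raised past a set limit in the mean and every replicate; three in four hits are not shown here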
Target sequence (Q9HCT0 whole entry, looked up): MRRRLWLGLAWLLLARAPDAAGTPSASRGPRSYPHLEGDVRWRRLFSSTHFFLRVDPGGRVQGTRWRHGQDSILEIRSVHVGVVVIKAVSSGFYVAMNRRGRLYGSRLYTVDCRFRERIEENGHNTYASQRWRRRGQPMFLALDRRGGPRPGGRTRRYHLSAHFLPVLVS
Beta cell apopt: beta cell apoptosis inhibition; hit rate 0.8% among 300,000; protection from apoptosis, % (test concentration not listed); INS-1E cytokine-induced death, ATP luminescence, 48 h; percent of positive-control rescue, neutral wells zero; AID 435005;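 active = all replicates at 75% or more, or half of them and the mean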;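 also: 0% = cytokine-treated negative control wells and 100% = positive control rescue; higher means more ATP so stronger rescue from cytokine killing; wells of about 40 µL received 100 nL stock; the first replicate is given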
Ecoli growth: blocks Escherichia coli growth. OD600, 23 h; active compounds read low. OD600 absorbance (concentration not given with the values). hit rate 0.21% among 330,000;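 active = OD600 absorbance below the run mean of sample wells minus 3.6 SD, in any replicate, cut at about 0.56 in these data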;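 also: stock transfer was 300 nL into about 60 µL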
MLL AF4-AF9 inh: blocks AF4 peptide binding to human AF9; hit rate 0.47% among 350,000; inhibition, % at 10 µM; AlphaScreen, biotin-AF4 peptide binding to FLAG-AF9; P42568;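 active = every replicate reaching a set inhibition limit, whatever the replicate mean, cut at about 25% in these data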;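 also: 0% = plate neutral control median and 100% = total signal loss; the record names both 10 and 1 µM as test concentration; the first replicate is given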
Target sequence (P42568 whole entry, looked up): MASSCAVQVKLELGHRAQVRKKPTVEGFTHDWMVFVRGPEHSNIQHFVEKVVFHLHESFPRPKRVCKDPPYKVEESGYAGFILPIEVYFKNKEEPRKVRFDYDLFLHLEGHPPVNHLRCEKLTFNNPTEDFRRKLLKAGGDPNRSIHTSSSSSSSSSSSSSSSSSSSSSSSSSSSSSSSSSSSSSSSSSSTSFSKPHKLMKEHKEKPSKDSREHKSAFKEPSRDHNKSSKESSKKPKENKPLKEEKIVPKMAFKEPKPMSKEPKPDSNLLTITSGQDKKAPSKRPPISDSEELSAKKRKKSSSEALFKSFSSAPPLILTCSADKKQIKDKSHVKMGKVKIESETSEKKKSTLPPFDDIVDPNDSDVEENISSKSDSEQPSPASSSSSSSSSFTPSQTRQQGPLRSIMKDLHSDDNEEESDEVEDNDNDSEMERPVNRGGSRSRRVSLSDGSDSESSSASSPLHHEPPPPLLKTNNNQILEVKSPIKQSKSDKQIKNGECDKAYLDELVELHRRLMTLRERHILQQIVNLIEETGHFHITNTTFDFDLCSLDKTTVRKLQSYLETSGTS
UCH37 DUB inh: blocks the human deubiquitinase UCH37; Q9Y5K5; purified proteasome/UCH37, Ub-AMC cleavage fluorescence; inhibition, % (test concentration not listed); hit rate 0.33% among 330,000;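 active = mean of two replicates above 20%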;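 also: 0% = compound-free wells with enzyme and 100% = wells lacking proteasome; stock transfer was 100 nL into about 20 µL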
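Signal – fluorescence, ex 355 nm, em 460 nm · System – Proteasome-bound UCH37 · Input – 0.15 nM proteasome as dispensed · Timing – 30 min preincubation with enzyme, 25 min cleavage at room temperature · Read-out basis – percent inhibition of cleavage signal versus uninhibited and no-proteasome wells · Medium – Tris-HCl pH 7.4 with ATP-MgCl2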
rRNA inh HTS: inhibits bacterial ribosomal RNA function over humanized ribosomes | E. coli WT GFP vs humanized-ribosome RFP mutants, fluorescence, 24 h; active compounds read low; DMSO median 0, no signal -100 | GFP signal change (wild-type ribosome), % (no concentration beside the values) | hit rate 1.6% among 350,000 | AID 720706;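 active = significant combined selectivity score with lowered wild-type GFP, culture density cut under 30%, mutant RFP and density less affected; inactive = any of these conditions unmet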; also: one replicate is shown; some compounds called inactive have numbers as strong as hits
T cruzi repl: blocks replication of Trypanosoma cruzi | T. cruzi beta-gal in NIH3T3, luminescence, 90 h | inhibition, % (test concentration not listed) | hit rate 1.4% among 300,000;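 active = mean inhibition across valid replicates above about 55%, limit read from the data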;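 also: signal also drops with host cell toxicity which is not excluded here; 0% = plate median of DMSO wells and 100% = zero luminescence signal; higher percent means less beta-gal luminescence so fewer parasites; stock transfer was 50 nL into about 50 µL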
A1 inh: inhibitors of the anti-apoptotic protein A1, read as caspase activation | MEF A1-2A-BIM cells, Caspase-Glo 3/7 luminescence, 3 h; percent of clofoctol response, vehicle zero | caspase activation, % (no concentration beside the values) | hit rate 0.066% among 330,000 | AID 2462;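 active = over half of replicate activation scores above 10%, or exactly half above 10 with the replicate mean above 10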;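 also: wells of about 30 µL received 50 nL stock; many hits fall short of the cut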
rRNA inh HTS OD600: also measured in rRNA inh HTS; calls as there; OD600 change, %; measured here: OD600 growth;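 optical density of the mix in the first replicate; 0 = DMSO median and -100 = no signal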
rRNA inh HTS RFP: also measured in rRNA inh HTS; calls as there; RFP signal change, %; measured here: RFP humanized mutant strains;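 first replicate; 0 = DMSO median and -100 = no signal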
* hit, by the source's call; i = inactive; . = no result given.

1: Cc1cc(C)c(S(=O)(=O)N2CCCOC2CNC(=O)C(=O)NCc2ccncc2)c(C)c1 (centres undefined)
2: NC(=O)CCC(=O)N1CCCC(C(=O)c2ccc(C(F)(F)F)cc2)C1 (centres undefined)
3: Cc1ccc(C(C)C)c(OCc2nc(-c3nonc3N)no2)c1
4: CCC1CCCCN1Cc1ccc(N)cc1 (centres undefined)
5: N#Cc1c(-c2ccncc2)c2c([nH]c1=S)CCCC2
6: CC1(C)CC(=O)C=C(NCCCNC2CCCCC2)C1
7: O=C(COC(=O)CCCNC(=O)c1ccc(Cl)cc1)Nc1cc(Cl)c(Cl)cc1Cl
8: CCC(=O)Nc1nnc(S(=O)(=O)N(CC)c2ccc(OC)cc2)s1
9: CS(=O)(=O)c1ccc(N2CCN(S(=O)(=O)c3cccs3)CC2)c([N+](=O)[O-])c1
10: CCOC(=O)c1c(NC(=O)Cn2nnc(-c3ccccc3Cl)n2)sc(C)c1C

Screen / compound no.	1	2	3	4	5	6	7	8	9	10
FGF22 binding	.	i	i	i	.	.	.	i	i	.
Beta cell apopt	-5	-2	1	-4	0	-1	5	0	0	-1
Ecoli growth	0.66	0.67	0.7	0.65	0.77	0.72	0.71	0.66	0.68	0.75
MLL AF4-AF9 inh	.	-1.7	3.1	2.4	.	.	.	-1.8	4.7	.
UCH37 DUB inh	-1.2	2.1	7.9	-2.3	-8.2	0.2	0.1	0.5	5.4	3.8
rRNA inh HTS	.	8	-20	10	.	.	.	7	-11	.
rRNA inh HTS OD600	.	3	-19	7	.	.	.	8	-5	.
rRNA inh HTS RFP	.	13	-13	1.0	.	.	.	-1.3	-0.9	.
T cruzi repl	3	-4	34	-2	.	-5	2	-2	.	-1
A1 inh	-0.1	-0.7	0.1	0.6	-0.8	-0.2	0.3	1.0	-0.1	0.5

11: CCOc1ccc(NC(=O)CN2CCN(CC(=O)Nc3ccc(OC)cc3)CC2)cc1
12: O=C(Nc1cc(N2CCCCC2)ncn1)c1ccc(F)cc1
13: CCOC(=O)CNC(=O)C1(/C=C/c2ccccc2)CC(=O)N1c1ccc(OC)cc1 (centres undefined)
14: Cc1cccc(Nc2c(-c3ccc(N4CCOCC4)cc3)nc3ncccn23)c1
15: COc1ccccc1NC(=O)N1CCN(C(=O)Nc2ccccc2OC)CC1
16: Cc1cccnc1-n1c(CCN2C(=O)c3ccccc3C2=O)nc2ccccc2c1=O
17: CC(C)CN(C(=O)C1CC1)C1CCS(=O)(=O)C1 (centres undefined)
18: Cc1cc(C)cc(NC(=O)CSc2nnnn2-c2cccnc2)c1
19: CCOc1ccc(OCCC(=O)OCC(=O)NC2CC2)cc1
20: Cn1c(=O)oc2cc(S(=O)(=O)NCc3ccc(Cl)cc3)ccc21

Screen / compound no.	11	12	13	14	15	16	17	18	19	20
FGF22 binding	.	i	i	i	.	.	i	i	i	i
Beta cell apopt	-11	3	2	.	0	-6	-1	-7	-2	-1
Ecoli growth	0.72	0.7	0.74	0.73	0.71	0.79	0.72	0.67	0.69	0.71
MLL AF4-AF9 inh	.	-1.3	2.1	2.8	-11	.	-3.4	-11	-1.9	-13
UCH37 DUB inh	4.4	3.3	7.1	-5.4	1.0	-1.0	3.8	2.8	2.4	1.1
rRNA inh HTS	.	-8	3	4	17	.	7	12	1	7
rRNA inh HTS OD600	.	-1	-2	2	7	.	4	14	6	-12
rRNA inh HTS RFP	.	-2.2	2.0	-0.6	3.4	.	-0.1	0.9	-3.1	4.2
T cruzi repl	5	-7	-7	-5	7	9	-2	8	-1	-3
A1 inh	-0.6	1.4	0.4	-1.3	-0.8	1.2	-0.6	0.4	0.3	-0.5

21: Cc1ccc(C(C)C)cc1OCC(=O)N1CCN(C(=O)c2ccco2)CC1
22: CCc1ccc(CNc2ccc3c(c2)ncn3C(C)(C)C)cc1
23: CNc1snc(C)c1C(=O)OCC(=O)NCc1ccccc1OC
24: CC(C)Nc1ccc(C(CC(N)=O)NC(=O)Cc2cccc3ccccc23)cc1[N+](=O)[O-] (centres undefined)
25: CCOC(=O)c1ccc(N=c2ssnc2Cl)cc1
26: Cc1ccc(NC(=O)c2ncc(Cl)c(Cl)c2Cl)cc1C
27: COc1cc(N2C(=O)CSC23C(=O)Nc2ccccc23)cc(OC)c1OC (centres undefined)
28: COc1ccc(C)cc1S(=O)(=O)N(C)CC(=O)Nc1ccc2c(c1)OCCO2
29: COC(=O)c1ccc(C)c(NC(=O)Cc2ccc([N+](=O)[O-])cc2)c1
30: O=C(c1ccc(-c2ccccc2)cc1)N1CCC(C(=O)N2CCCC2)CC1

Screen / compound no.	21	22	23	24	25	26	27	28	29	30
FGF22 binding	i	i	i	i	i	i	.	i	i	.
Beta cell apopt	-11	0	-2	-10	.	-1	0	-2	-1	-1
Ecoli growth	0.69	0.61	0.67	0.66	0.69	0.64	0.7	0.63	0.71	0.71
MLL AF4-AF9 inh	-2.3	15	-2.8	1.7	-1.9	-3.4	.	-4.3	0.3	.
UCH37 DUB inh	-0.5	-3.1	0.1	4.2	-0.9	-0.2	-2.6	0.9	3.6	2.2
rRNA inh HTS	-5	-58	9	.	-33	4	.	-4	1	.
rRNA inh HTS OD600	-7	-77	7	.	-34	-6	.	-14	1	.
rRNA inh HTS RFP	2.1	-15	1.3	.	-3.9	0.1	.	8.2	-3.5	.
T cruzi repl	11	17	.	-8	-20	-18	-13	-17	-11	3
A1 inh	0.0	1.7	-0.3	0.5	.	-2.9	-0.3	0.2	0.0	-0.1

31: O=C(CSc1nc(O)cc(=O)n1-c1ccccc1)c1ccc(Br)cc1
32: CC1CN(C(=O)COC(=O)c2ccc(F)cc2Cl)CC(C)O1 (centres undefined)
33: Cn1c(=O)c(C#N)c(-c2ccccc2)n2cnnc12
34: CC(=O)NCCc1ccc(C(=O)COC(=O)c2cc(C)oc2C)cc1
35: O=C(NCCc1ccccc1)c1cccnc1
36: CCS(=O)(=O)N1CCC(C(=O)Nc2cc(Cl)ccc2O)CC1
37: CCOC(=O)CC(NC(=O)C(CC)c1ccccc1)c1ccccc1Cl (centres undefined)
38: COc1cc(C2C(C(=O)c3ccc(C)o3)=C(O)C(=O)N2c2cc(C)on2)ccc1OCc1ccccc1 (centres undefined)
39: Cc1ccc(-c2nc(CN(C)C3CCOCC3)c(C)o2)s1
40: CCOC(=O)CNC(=O)c1cc(OC)cc(OC)c1

Screen / compound no.	31	32	33	34	35	36	37	38	39	40
FGF22 binding	i	i	i	i	.	.	.	i	.	i
Beta cell apopt	-6	-5	-7	5	-2	-6	2	0	-4	-4
Ecoli growth	0.69	0.63	0.68	0.67	0.74	0.66	0.69	0.72	0.69	0.65
MLL AF4-AF9 inh	-3.9	-1.6	3.4	-1.2	.	.	.	-3.5	-0.4	-1.4
UCH37 DUB inh	0.3	3.1	1.5	2.5	0.5	2.0	-1.3	-2.7	-9.5	1.3
rRNA inh HTS	10	-2	7	-2	.	.	.	11	12	21
rRNA inh HTS OD600	-2	0	3	-2	.	.	.	12	5	6
rRNA inh HTS RFP	3.9	-0.1	1.8	1.4	.	.	.	-0.6	-4.3	1.0
T cruzi repl	-2	-6	-6	.	-3	-8	12	-27	-18	-4
A1 inh	0.5	0.9	0.9	-1.4	0.4	-0.3	-0.1	-0.1	0.1	0.5

41: COc1cc(C=C(C(C)=O)C(C)=O)ccc1O
42: CC1(C)Cc2c(C#N)c(N3CCOCC3)nc(Cc3ccccc3)c2CO1
43: CC(C)CCn1c(N2CCCC2)nc2c1c(=O)[nH]c(=O)n2C
44: O=C(Cn1cnc2cc([N+](=O)[O-])ccc2c1=O)N(Cc1ccccc1)C1CCS(=O)(=O)C1 (centres undefined)
45: Cc1nn(-c2cccc(C(F)(F)F)c2)c(=O)c2noc(C)c12
46: CC(C)c1ccc(Nc2nc(Cl)nc(NCCO)n2)cc1
47: O=C1c2[nH]nc(-c3ccccc3O)c2C(c2cccc(O)c2)N1Cc1ccco1 (centres undefined)

Screen / compound no.	41	42	43	44	45	46	47
FGF22 binding	.	.	i	i	i	i	.
Beta cell apopt	1	1	.	-6	.	0	3
Ecoli growth	0.69	0.68	0.67	0.7	0.68	0.58	0.7
MLL AF4-AF9 inh	.	.	0.6	-2.4	-1.0	-3.2	.
UCH37 DUB inh	6.8	-72	2.1	6.5	2.2	1.9	6.1
rRNA inh HTS	.	.	0	14	1	-29	.
rRNA inh HTS OD600	.	.	-3	2	10	-33	.
rRNA inh HTS RFP	.	.	-0.2	0.3	1.2	-7.8	.
T cruzi repl	-9	19	0	20	.	-1	8
A1 inh	0.2	0.3	0.3	-0.6	1.7	1.0	-0.5

A second format for eleven compounds above.
The line under a structure holds: FGF22 binding, Beta cell apopt, Ecoli growth, MLL AF4-AF9 inh, UCH37 DUB inh, rRNA inh HTS, rRNA inh HTS OD600, rRNA inh HTS RFP, T cruzi repl, A1 inh
[37] CCOC(=O)CC(NC(=O)C(CC)c1ccccc1)c1ccccc1Cl (centres undefined)
  ., 2, 0.69, ., -1.3, ., ., ., 12, -0.1
[38] COc1cc(C2C(C(=O)c3ccc(C)o3)=C(O)C(=O)N2c2cc(C)on2)ccc1OCc1ccccc1 (centres undefined)
  i, 0, 0.72, -3.5, -2.7, 11, 12, -0.6, -27, -0.1
[39] Cc1ccc(-c2nc(CN(C)C3CCOCC3)c(C)o2)s1
  ., -4, 0.69, -0.4, -9.5, 12, 5, -4.3, -18, 0.1
[40] CCOC(=O)CNC(=O)c1cc(OC)cc(OC)c1
  i, -4, 0.65, -1.4, 1.3, 21, 6, 1.0, -4, 0.5
[41] COc1cc(C=C(C(C)=O)C(C)=O)ccc1O
  ., 1, 0.69, ., 6.8, ., ., ., -9, 0.2
[42] CC1(C)Cc2c(C#N)c(N3CCOCC3)nc(Cc3ccccc3)c2CO1
  ., 1, 0.68, ., -72, ., ., ., 19, 0.3
[43] CC(C)CCn1c(N2CCCC2)nc2c1c(=O)[nH]c(=O)n2C
  i, ., 0.67, 0.6, 2.1, 0, -3, -0.2, 0, 0.3
[44] O=C(Cn1cnc2cc([N+](=O)[O-])ccc2c1=O)N(Cc1ccccc1)C1CCS(=O)(=O)C1 (centres undefined)
  i, -6, 0.7, -2.4, 6.5, 14, 2, 0.3, 20, -0.6
[45] Cc1nn(-c2cccc(C(F)(F)F)c2)c(=O)c2noc(C)c12
  i, ., 0.68, -1.0, 2.2, 1, 10, 1.2, ., 1.7
[46] CC(C)c1ccc(Nc2nc(Cl)nc(NCCO)n2)cc1
  i, 0, 0.58, -3.2, 1.9, -29, -33, -7.8, -1, 1.0
[47] O=C1c2[nH]nc(-c3ccccc3O)c2C(c2cccc(O)c2)N1Cc1ccco1 (centres undefined)
  ., 3, 0.7, ., 6.1, ., ., ., 8, -0.5

Some of the compounds tested; the hit share may differ from the screen's.
